D2 PAM – positive allosteric modulators of human D2 dopamine receptor | P14416 | DiscoveRx D2 beta-arrestin cells, luminescence, 90 min; 100% = 57 uM dopamine signal | potentiation, % (test concentration not listed) | 360,000 tested, 0.23% active | AID 624464; active = potentiation of 50% or more; inconclusive = 30% to 50%; inactive = 30% or less;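 also: compound concentration not given in the record; tested on top of an EC20 dose of dopamine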
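PathHunter D2 cells, attached overnight at 37 deg C, received compound in DMSO plus dopamine at EC20 (50 nM final) for 90 min at 37 deg C. Beta-arrestin recruitment was read as luminescence after 1 h with detection reagent at ambient temperature.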
D2 agonist – human D2 receptor agonism in beta-arrestin assay; P14416; activation, % (concentration not given with the values); DiscoveRx PathHunter D2 beta-arrestin, luminescence, 90 min; 100% = 57 uM dopamine signal; AID 624465; 360,000 tested, 0.084% active; in the data active = activation above about 40%; inconclusive = about 15% to 40%; inactive = below about 15%; also: compound concentration not given in the record; the text of the record calls up to 30% inactive
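Agonist mode: compounds alone added to overnight-plated D2 PathHunter cells for 90 min at 37 C, with 57 uM final dopamine (EC100) defining full response. Beta-arrestin recruitment detected by chemiluminescent reagent, read after 1 h at ambient temperature.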
PINK1 expr mod – modulators of PINK1 expression; PINK1 immunofluorescence, high-content cytometry, 24 h; Potency, µM (titrated, usually from 76.6 µM), for inactives: top-dose activation (PINK1 increase), hits mostly activators; 410,000 tested, 0.2% active; active = well fitted activation curve with a large enough effect; inconclusive = small, poorly fitted or top-dose-only effect; inactive = flat fitted curve, though single readings scatter; cell line not stated here;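 also: potency is read from the fitted curve at half-maximal effect; % of control where 0% means no effect; nearly all actives have a fitted effect of over 65% in size; a mitochondrial uncoupler was the plate control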
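Measures PINK1 amount and localization on or inside mitochondria by immunofluorescence. Stable cells get compounds at 5 concentrations for 24 hours before fixation and staining; CCCP controls included.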
TRPML1 inh – human mucolipin-1 channel inhibition; 390,000 tested, 0.02% active; AID 624415; TRPML1-inducible cells, Ca2+ dye fluorescence, FDSS; stronger effect = lower value; inhibition of EC80 agonist-evoked calcium signal; activity change, negative = inhibition, % (test concentration not listed); Q9GZU1; in the data active means activity change below about -50%; inconclusive means about -30% to -50%; inactive means above about -30%;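 also: stimulus is agonist 54-4 at its EC80 concentration; % is scaled to controls: 0 for no effect and ±100 for the full control effect; compound concentration not given in the record; the text of the record puts the active cut at -80%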
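TRPML1-DL cells, Tet-induced overnight (~16 h, 37 °C) at 1,500 cells/well, were loaded with Ca8 no-wash dye plus quencher for 45-90 min at room temperature. Compounds were pinned during FDSS kinetic reading; agonist 54-4 at EC80 (4 uM final) then added.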
Six1-Eya2 inh – blocks human Six1 binding to Eya2; Q15475+O00167; activity change, % (concentration not given with the values); AlphaScreen GST-Six1/His-Eya2 binding, biochemical; stronger effect = lower value; control for the full effect not named in the record; AID 651725; 360,000 tested, 0.56% active; in the data active = activity change below about -65%; inconclusive = about -30% to -65%; inactive = above about -30%; also: % is scaled to controls: 0 for no effect and ±100 for the full control effect
Target sequence (O00167 whole entry, looked up): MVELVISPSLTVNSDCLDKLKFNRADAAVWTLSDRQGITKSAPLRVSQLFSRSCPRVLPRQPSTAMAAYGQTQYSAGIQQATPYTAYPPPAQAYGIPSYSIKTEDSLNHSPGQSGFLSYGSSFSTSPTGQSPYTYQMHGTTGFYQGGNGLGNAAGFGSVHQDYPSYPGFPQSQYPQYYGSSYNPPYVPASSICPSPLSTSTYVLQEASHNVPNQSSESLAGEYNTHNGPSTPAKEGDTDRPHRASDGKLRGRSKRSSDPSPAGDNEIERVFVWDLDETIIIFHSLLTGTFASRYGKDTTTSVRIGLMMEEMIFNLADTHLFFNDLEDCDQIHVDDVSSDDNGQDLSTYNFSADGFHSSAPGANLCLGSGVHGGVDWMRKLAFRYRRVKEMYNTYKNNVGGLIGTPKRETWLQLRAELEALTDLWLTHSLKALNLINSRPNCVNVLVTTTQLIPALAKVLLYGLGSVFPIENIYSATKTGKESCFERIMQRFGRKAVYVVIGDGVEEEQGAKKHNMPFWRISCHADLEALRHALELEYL
Target sequence (Q15475 whole entry, looked up): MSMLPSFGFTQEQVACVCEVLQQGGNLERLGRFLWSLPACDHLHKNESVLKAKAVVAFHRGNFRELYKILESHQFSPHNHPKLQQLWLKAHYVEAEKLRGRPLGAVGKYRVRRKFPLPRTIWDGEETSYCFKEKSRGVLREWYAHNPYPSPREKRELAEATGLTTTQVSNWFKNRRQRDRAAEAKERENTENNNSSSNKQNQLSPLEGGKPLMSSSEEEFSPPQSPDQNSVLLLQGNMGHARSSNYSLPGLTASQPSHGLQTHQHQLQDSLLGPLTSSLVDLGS
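AlphaScreen luminescence read after one hour at 37 °C in darkness. Pin-transferred compounds met GST-Six1 and His-Eya2 protein (5X stock 250 nM/500 nM) plus glutathione donor and Ni-chelate acceptor beads (5X, 50 ug/mL).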
TRPML1 agonist – human mucolipin-1 channel agonism; TRPML1-expressing cells, Ca2+ dye fluorescence, FDSS; host cell line not named in the record; reference of the full effect not given here; activation, % (test concentration not listed); AID 624414; 410,000 tested, 0.12% active; Q9GZU1; in the data active = activation above about 50%; inconclusive = about 30% to 50%; inactive = below about 30%; also: 0% is about no effect; the text of the record puts the active cut at 80%
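Calcium fluorescence on an FDSS kinetic reader gave the read-out. Tet-induced TRPML1-DL cells were plated overnight, dye-loaded (Ca8 with quencher, 45-90 min, room temperature, dark), then read 110 s after compound addition, and again 110 s after 4uM final 54-4 (EC80).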
* = called active by the depositor; ? = inconclusive; nt = not tested or not shown; [ ] = remark or other dose.

SMILES | D2 PAM | D2 agonist | PINK1 expr mod | TRPML1 inh | Six1-Eya2 inh | TRPML1 agonist
CC(NCC(=O)Nc1ccccc1C(=O)NC1CC1)c1ccc(S(N)(=O)=O)cc1 (configuration not stated) | 1 | -3.7 | -1.2% | -10 | 11 | -0.1
O=C(Nc1nc2ccccc2[nH]1)c1ccc(Cl)cc1 | -8 | -4.8 | 2.1% | 0 | 2 | -0.3
COc1cc(C(=O)OCCn2c(=O)c3c(ncn3CCN(C)C)n(C)c2=O)cc(OC)c1OC | -11 | -2.4 | 0.7% | 1 | 15 | 0.8
COCCNC(=O)CCN1C(=O)c2cccnc2Oc2ccc(C)cc21 | nt | nt | 0.7% | 12 | nt | 1.4
CC(C)CCC(C(=O)NC(C)c1ccccc1)C(=O)NC(C)c1ccccc1 (configuration not stated) | -7 | -3.2 | 0.9% | -18 | 6 | 0.9
Cc1nn(C)c2c1c(C(F)(F)F)cc(=O)n2C(C)C(=O)NCCC(C)C (configuration not stated) | nt | nt | 3.7% | -8 | nt | 0.6
COC(=O)c1oc2ccccc2c1N | -9 | -1.0 | -2.4% | 2 | -3 | -0.6
CN(C)Cc1ccccc1Sc1ccccc1Br | -24 | 1.7 | 1.7% | 12 | 5 | 0.3
CCCn1c(SCC(=O)Nc2nc(C)cs2)nnc1-c1cccnc1 | 7 | 1.1 | 0.5% | 30 | 7 | -0.2
CC(C)(C)c1ccc(-c2nnc3sc(-c4ccncc4)nn23)cc1 | 11 | 2.8 | 8.1%[38.3 µM] | 8 | -3 | 3.5
NC(=S)n1[nH]c(-c2ccc([N+](=O)[O-])cc2)c(N=Nc2ccc(O)cc2)c1=O | -13 | -4.3 | 0.6% | 38 | -21 | 1.7
O=C(OCCN1CCOCC1)c1ccccc1 | -17 | 0.5 | -1.0% | -5 | 1 | -0.7
COc1cc(C(=O)NC(=S)NC(C)C)cc(OC)c1OC | 18 | 3.1 | -1.4% | -29 | -7 | 2.2
Cc1ccc(C(=O)n2nc(-c3cccnc3)nc2N)cc1 | -6 | -2.4 | 6.9%[38.3 µM] | 6 | -2 | 0.1
Cc1cc(C)cc(NC(=O)Cn2nc(N3CCN(c4ccccc4)CC3)ccc2=O)c1 | nt | nt | 1.4% | 11 | nt | 3.7
Cc1ccc(S(=O)(=O)N(C)C)cc1NC(=O)C1CCCC1 | -27 | -11 | 2.4% | -12 | 7 | -0.7
CCCCCOc1ccc(Br)cc1CSC(=N)N | -16 | -5.6 | -1.2% | 4 | 12 | 3.7
CC(C)N1CCN(CC2COc3ccccc3O2)CC1 (configuration not stated) | -10 | -5.2 | 4.0% | 11 | 0 | 0.3
CCOc1ccc(OCCC(=O)OCC(=O)NC2CC2)cc1 | -4 | -0.6 | 6.1% | -8 | 2 | 0.7
CCc1nnc2c(N3CCN(c4cc(Cl)ccc4C)CC3)nc3ccccc3n12 | nt | nt | -0.2% | -12 | nt | 0.2
COc1ccccc1NS(=O)(=O)c1cn(C)cn1 | 0 | 0.9 | 3.3% | -6 | 3 | -0.7
Cc1ccc(N2CC(C(=O)OCC(=O)C(C)(C)C)CC2=O)cc1 (configuration not stated) | -13 | -3.7 | -1.1%[38.3 µM] | 9 | 5 | -0.1
Cc1cc(Cl)cc(Br)c1OCCNCC(C)O (configuration not stated) | -34 | -0.5 | -0.5% | -9 | -2 | 0.2
COc1cc2c(cc1OC)C(c1cccc(OC)c1OC)CC(=O)N2 (configuration not stated) | -2 | 3.5 | nt | -2 | 2 | -0.3
Cc1ccc(C)c(NCCCCCCCC(=O)O)c1 | 5 | 2.0 | -0.4% | nt | 3 | -0.5

Next results follow.
SMILES | D2 PAM | D2 agonist | PINK1 expr mod | TRPML1 inh | Six1-Eya2 inh | TRPML1 agonist
O=C(COC(=O)c1ccc(=O)[nH]c1)Nc1cccc(S(=O)(=O)N2CCOCC2)c1 | -10 | -1.8 | -0.2% | 14 | -5 | 1.0
COc1ccc(/C=C2/C(=O)N(c3ccccc3)N=C2C)c(OC)c1 | -8 | -1.8 | 0.5% | 9 | 5 | 7.6
COc1ccccc1CNC(=O)C1CC2Cn3c(nc4cc5ccccc5cc43)C2N1C (configuration not stated) | -10 | -0.2 | -0.5% | 6 | -17 | -0.5
COC(C)(C)[C@@H](O)COc1c2ccoc2cc2oc(=O)ccc12 | -2 | -0.3 | -0.5% | 15 | 1 | -0.7
Cc1ccc(NC(=O)COC(=O)Cn2ccc(C(F)(F)F)n2)cc1Cl | -1 | 5.8 | 0.9% | -14 | 6 | 0.2
CCOP(=O)(CC(C(C)=O)C(O)c1ccccc1)OCC (configuration not stated) | -49 | -0.8 | 2.1% | 12 | 4 | -0.3
CCOc1ccc(CNC(=O)c2ccc3nc(Cc4ccc(OC)cc4)oc3c2)cc1OC | nt | nt | 4.1% | -6 | nt | 0.1
Brc1ccc2ncnc(Nc3ccc(N4CCOCC4)cc3)c2c1 | 16 | 2.7 | -2.1% | 36 | -23 | 0.2
CSc1ccc(CN2CCC(C)(Oc3ccc(CC#N)cc3)C2)cc1 (configuration not stated) | -8 | 0.5 | 0.9% | nt | -18 | -0.5
CCc1ccc2[nH]c(=O)c(C(c3nnnn3CCOC)N3CCN(c4ccccc4)CC3)cc2c1 (configuration not stated) | -4 | 2.2 | 2.6% | 20 | 6 | 1.3
Cc1ccccc1NC(=O)Nc1nc(C(N)c2ccccc2)cs1 (configuration not stated) | -15 | -3.9 | 12% | nt | -27 | 0.9
Cc1ccc(C)c(NC(=O)CSc2nc3[nH]ncc3c(=O)[nH]2)c1 | -26 | -1.5 | -0.8% | -17 | 0 | 1.6
CC(C)C(=O)N(Nc1nc2ccccc2s1)C(=O)C(C)C | -8 | -0.9 | 5.4% | 4 | -13 | 0.5
C[C@H]1CN([C@@H](C)CO)C(=O)CCCn2nncc2CO[C@@H]1CN(C)C(=O)c1ccc(N2CCN(C)CC2)cc1 | 5 | -4.1 | 2.2% | 14 | 0 | -0.4
O=C(NN=Cc1ccccc1C(=O)O)c1ccc(NS(=O)(=O)c2cccs2)cc1 | -1 | 2.4 | 0.5% | 19 | 5 | 2.1
CC(=O)OC[C@@H]1CN(Cc2ccccc2)C[C@H](n2cnc3c(NCC(C)C)ncnc32)O1 | -10 | -4.4 | 0.2% | nt | 0 | -0.2
COc1ccc(C(C)NC(=S)NC2CCCC2)cc1OC (configuration not stated) | -4 | -2.7 | ? | -25 | -5 | 1.1
Cc1[nH]n(-c2ccccc2)c(=O)c1/C=C1/C=c2ccccc2=N1 | -12 | -6.0 | 2.0% | 11 | -16 | -0.9
COc1ccc(NC(=O)Cc2c(Cl)cccc2Cl)cn1 | -5 | -3.4 | 0.2% | -5 | -2 | -0.7
O=C(COc1ccc(Cl)cc1)Nc1ccc2c(c1)C(=O)NC2=O | -31 | -6.9 | 0.0% | -5 | 3 | 1.4
CCCSc1ncc(Cl)c(C(=O)Nc2ccc(S(=O)(=O)N3CCCC(C)C3)cc2)n1 (configuration not stated) | nt | nt | 0.7% | 2 | nt | 1.3
N#Cc1cccc(NC(=O)C2CCN(c3ncccn3)CC2)c1 | nt | nt | -0.7% | 14 | nt | -1.1
COc1ccc(C2NC(=O)NC(C)=C2C(=O)OCc2ccc3c(c2)OCO3)cc1OC (configuration not stated) | -7 | -3.4 | 1.8%[38.3 µM] | 15 | 0 | 0.3
Cn1c(C(=O)N/N=C/c2ccccc2)cc2ccccc21 | 7 | 3.2 | 7.2% | -10 | -1 | -0.5
O=C(/C=C/c1cccc([N+](=O)[O-])c1)NCc1ccco1 | -18 | -1.9 | 0.2% | 3 | -17 | -0.8

Additional results follow:
SMILES | D2 PAM | D2 agonist | PINK1 expr mod | TRPML1 inh | Six1-Eya2 inh | TRPML1 agonist
C=CCSC1=C(C#N)C(c2ccccc2OC)CC(=O)N1 (configuration not stated) | 0 | -3.9 | 0.1% | -3 | 5 | 1.1
CCOc1ccc(S(=O)(=O)NC2CC2)cc1C(N)=O | -8 | 10 | 2.0% | -9 | 2 | -0.5
Cc1cc(Nc2ccc(C(=O)O)cc2)n2nc(C)nc2n1 | 1 | 2.5 | -0.1% | -10 | -2 | -0.3
COc1cccc(-n2ccnc2SCC(=O)NCc2ccccc2)c1 | -19 | -4.1 | -1.1% | 0 | 1 | 0.4
CCCCNC(=O)C(CC)Sc1nc2ccccc2c(=O)n1CCc1ccc(OC)c(OC)c1 (configuration not stated) | nt | nt | 3.0% | 23 | nt | 1.1
O=C(CN1CCN(c2ccccn2)CC1)NC1CCCCC1 | -6 | 1.0 | -0.9% | -16 | 6 | 0.8
Cc1ccc(-n2c(CNc3ccc(C)c(Cl)c3)n[nH]c2=S)cc1 | -16 | -8.8 | 7.7% | 17 | -19 | 1.4
NC(=O)c1cc2cc(Cl)ccc2oc1=O | -1 | -3.9 | -1.1% | -18 | -2 | 1.2
O=C(Cn1c(=O)n(Cc2ccc(F)cc2)c(=O)c2sc3ccccc3c21)Nc1ccc(F)cc1F | nt | nt | 2.2% | 22 | nt | 2.6
CCc1cccc2c(C(=O)CSc3nncn3-c3ccccc3OC)c[nH]c12 | 0 | 2.2 | 12% | -9 | 14 | 0.2
Cc1cccc(C)c1C(O)c1ncc(-c2ccc(F)cc2)[nH]1 (configuration not stated) | -8 | -4.1 | -0.7% | nt | -7 | -1.4
O=C(Nc1ccc2c(c1)OCO2)C1Cc2c(-c3ccc(Cl)cc3)ccnc2O1 (configuration not stated) | -8 | -1.4 | 1.4% | nt | ? | -1.1
COc1ccc(N(Cc2cc3ccc(C)cc3[nH]c2=O)C(=O)C2CCCO2)cc1 (configuration not stated) | 1 | 2.6 | -2.4% | 20 | 1 | -0.4

Some of the entries so far, with values under each structure:
The line under a structure holds: D2 PAM | D2 agonist | PINK1 expr mod | TRPML1 inh | Six1-Eya2 inh | TRPML1 agonist
> C=CCSC1=C(C#N)C(c2ccccc2OC)CC(=O)N1 (configuration not stated)
 : 0 | -3.9 | 0.1% | -3 | 5 | 1.1
> CCOc1ccc(S(=O)(=O)NC2CC2)cc1C(N)=O
 : -8 | 10 | 2.0% | -9 | 2 | -0.5
> Cc1cc(Nc2ccc(C(=O)O)cc2)n2nc(C)nc2n1
 : 1 | 2.5 | -0.1% | -10 | -2 | -0.3
> COc1cccc(-n2ccnc2SCC(=O)NCc2ccccc2)c1
 : -19 | -4.1 | -1.1% | 0 | 1 | 0.4
> CCCCNC(=O)C(CC)Sc1nc2ccccc2c(=O)n1CCc1ccc(OC)c(OC)c1 (configuration not stated)
 : nt | nt | 3.0% | 23 | nt | 1.1
> O=C(CN1CCN(c2ccccn2)CC1)NC1CCCCC1
 : -6 | 1.0 | -0.9% | -16 | 6 | 0.8
> Cc1ccc(-n2c(CNc3ccc(C)c(Cl)c3)n[nH]c2=S)cc1
 : -16 | -8.8 | 7.7% | 17 | -19 | 1.4
> NC(=O)c1cc2cc(Cl)ccc2oc1=O
 : -1 | -3.9 | -1.1% | -18 | -2 | 1.2
> O=C(Cn1c(=O)n(Cc2ccc(F)cc2)c(=O)c2sc3ccccc3c21)Nc1ccc(F)cc1F
 : nt | nt | 2.2% | 22 | nt | 2.6

Bioassay records from PubChem BioAssay.
